High-throughput results deposited in PubChem BioAssay by Broad Institute.
Tgondii IFNg: T. gondii growth inhibition with IFN-gamma, primary screen, cell-based; activity change, negative = inhibition, %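 (about 20 µM by stock and volumes)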; Toxoplasma gondii growth in IFN-gamma-treated host cells; hits give low values; reference of the scale not given here; hit rate 3.8% among 69,000;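 active = below -70%; inconclusive = fit judged invalid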;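 note: host cells are HeLa cells infected with Toxoplasma gondii; parasite growth read as luciferase light; one replicate is shown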
Numbers without * were called inactive; i = inactive; ? = inconclusive; ! = not confirmed by another sample.

item	canonical_smiles	Tgondii IFNg
1	N#C[C@@H]1[C@H](c2ccccc2-c2ccccc2F)[C@@H](CO)N1C(=O)C1CCC1	20.3
2	COc1ccc(NC(=O)C(=O)NCCc2csc(-c3ccc(F)cc3)n2)cc1	66.6
3	Cn1cc(C(F)(F)F)nc1-c1ccc(OCC(O)CNCCOc2ccc(O)c(C(N)=O)c2)cc1 (stereo not drawn)	0.1
4	CCOC(=O)CSc1nnc(-c2ccccc2)c(-c2ccccc2)n1	27.5
5	COC(=O)CNC(=O)C(CCSC)NC(C)=O (stereo not drawn)	13.2
6	Cc1nnsc1C(=O)N[C@@H](C)Cn1nnn(-c2ccccc2)c1=O	124.0
7	O=C(NCCCc1ccccn1)c1ccc(N2CCC(CO)C2)nc1 (stereo not drawn)	-3.6
8	COc1ccccc1C(NC(=O)CCC1(C)NC(=O)NC1=O)c1ccccc1 (stereo not drawn)	3.7
9	Cn1nccc1-c1cnc2n1CCNC21CCN(C(=O)CC(F)(F)F)CC1	33.8
10	COc1ccc(NS(=O)(=O)c2ccc3c(c2)CCO3)cc1	6.9

item	canonical_smiles	Tgondii IFNg
11	COc1ccc(NC(=O)CC(=O)N2CCN(CCO)CC2)c(OC)c1	-7.5
12	CCOC(=O)c1nc(Nc2ccc(CC)cc2)c2ccccc2n1	-38.1
13	O=C(c1ccn[nH]1)N1CCCC(CCc2cccc(C(F)(F)F)c2)C1 (stereo not drawn)	-30.2
14	Cc1cc(C(=O)CSc2nnc(CN3CCOCC3)n2C)c(C)n1-c1ccc(F)cc1	44.4
15	O=C(NCCS(=O)(=O)c1ccc(F)cc1)c1cnn2c(-c3ccccc3)ccnc12	-1.6
16	CCOc1nc2cccc(C(=O)OCc3oc(=O)oc3C)c2n1Cc1ccc(-c2ccccc2-c2noc(=O)[nH]2)cc1	-5.5
17	CCSCC(C)NCc1ccccc1-n1ccnc1 (stereo not drawn)	12.5
18	O=C(C1CCCN1)N1CC=C(c2ccc(F)cc2)CC1 (stereo not drawn)	36.6
19	Cc1oc(-c2cccc(Cl)c2)nc1Cn1nnc(-c2nc(-c3cccnc3)no2)c1C	12.5
20	Cc1ccccc1NC(=O)CC(=O)NCC[C@@H]1C[C@@H]2C=C[C@H]1C2	-5.1

item	canonical_smiles	Tgondii IFNg
21	Clc1ccc(-c2nc(-c3ccc(Cl)cc3)c(-c3ccccc3)s2)cc1	-45.2
22	Cc1cccc(CN2CCC3(CCN(C(=O)c4ccno4)CC3)C2=O)c1	-7.2
23	COc1ccc(NC(=O)Nc2ccc(-c3nc(-c4ccc(C)cc4C)co3)cc2)cc1OC	6.2
24	O=C(NCc1cccnc1)c1ccc(N2CCC(NC3C4CC5CC(C4)CC3C5)CC2)cc1 (stereo not drawn)	5.9
25	O=c1ccc2cc(S(=O)(=O)N(CCCN3CCOCC3)Cc3ccco3)ccc2[nH]1	53.5
26	N#CCCn1nc(-c2cccnc2)oc1=O	52.3
27	Cc1cc(C)n2nc(C(=O)NCC(C)(C)N3CCCCC3)nc2n1	5.1
28	O=c1oc2ccccc2n1CCN1CC[C@@H](c2ccc(F)cc2)[C@H](O)C1	-2.2
29	O=C1CN2Cc3c(ccc(Cl)c3Cl)N=C2N1	-82.8*!
30	Cn1cc(CN2CCC(C(=O)N3CCCCC3)CC2)c(-c2ccccc2F)n1	6.5

item	canonical_smiles	Tgondii IFNg
31	COc1ccc(NC(=O)Nc2ccc(OC)c(OC3CCCC3)c2)cc1OC1CCCC1	138.6
32	COC(=O)c1sc(N2CCCC2)c(S(=O)(=O)C(C)C)c1N	27.2
33	COc1cccc([C@H](C)n2ccnc2-c2nc[nH]c2C)c1	1.5
34	Cc1[nH]c2cccc(C(=O)N3CCOC(C)(C(=O)NC4CCCC4)C3)c2c1C (stereo not drawn)	18.9
35	CCS(=O)(=O)N1CCC[C@@H](Cn2nnc(-c3ccccn3)n2)C1	-10.4
36	CCn1c(CC2CCN(CCc3ccccc3)CC2)n[nH]c1=O	-5.3
37	CCN(CC)c1ncnc2c1cnn2CC(=O)NCc1ccc(C)o1	41.8
38	Cc1ccsc1C1NC(=O)c2ccccc2N1 (stereo not drawn)	17.4
39	COc1ccc(S(=O)(=O)Nc2cncc(C(=O)Nc3ccc(C)c(F)c3)c2)cc1OC	-14.1
40	C=C1COC(=O)N1Cc1ccccc1Cl	-9.1

item	canonical_smiles	Tgondii IFNg
41	Cc1cc(C2CCCN2Cc2cn(C(C)C)c3ccccc23)no1 (stereo not drawn)	0.8
42	Cc1ccc(S(=O)(=O)N(C)CC(=O)NCc2nc(-c3ccc(Cl)cc3)no2)cc1	38.2
43	Cc1cccc(CN(C)Cc2ccc(-c3nc(C(F)(F)F)c(C)c(=O)[nH]3)cc2)n1	-45.9
44	O=C1c2ccccc2O[C@@H](c2ccccc2)[C@@H]1O	170.7
45	CCOC(=O)c1nc(NCCc2c[nH]c3ccc(OC)cc23)c2c(-c3ccc(Cl)cc3)noc2n1	206.0
46	CCOCc1ncn2c1CN(S(=O)(=O)C1CC1)CCC2	-5.4
47	COc1ccc(-c2nc3c(s2)CN(C(=O)Nc2ccc(C)cc2C)CC3)cc1	52.8
48	CCS(=O)(=O)NCC[C@H]1CC[C@@H](NS(=O)(=O)c2ccccc2C)[C@@H](CO)O1	38.9
49	Cc1ccccc1N1CCN(Cc2ccc(S(C)(=O)=O)cc2)C(C)C1 (stereo not drawn)	-17.4
50	O=C(O)CCCCCNC(=O)Nc1ccc2c(c1)OCCO2	7.9

item	canonical_smiles	Tgondii IFNg
51	Cc1ccc(C)c(C(=O)Nc2ccc(-c3nc(Cn4cccn4)c(C)o3)cc2)c1	126.9
52	O=C(NC1CCN(c2cnccn2)CC1)c1ccccc1C1CCNC1 (stereo not drawn)	3.0
53	Cc1cccc(NCc2c(C#N)c3ccccc3n2C)c1	229.7
54	CC(C)c1cc(N2Cc3cnn(CCO)c3C2)nc(C(F)(F)F)n1	-29.1
55	CCOC(=O)CN1C(C)=Nc2ccc(Br)cc2C1c1ccccc1 (stereo not drawn)	-32.2
56	Cc1ncc(-c2ccccn2)c(CCNC(=O)C(C)C)n1	16.8
57	CC(Nc1ncnc2ccccc12)c1ccccc1 (stereo not drawn)	-93.4*
58	CN1CCCCC1CCNC(=O)c1ccc(N2CCNCC2)nc1 (stereo not drawn)	1.2
59	S=c1c2ccccc2sn1-c1ccccc1	79.1
60	COc1ccccc1-c1cnc2c(c1)C(=O)N([C@H](C)CO)C[C@H](C)[C@H](CN(C)C(=O)CC1CC1)O2	41.5

Shown as labelled records: entries from further up
(51) Cc1ccc(C)c(C(=O)Nc2ccc(-c3nc(Cn4cccn4)c(C)o3)cc2)c1
  Tgondii IFNg: 126.9

(52) O=C(NC1CCN(c2cnccn2)CC1)c1ccccc1C1CCNC1 (stereo not drawn)
  Tgondii IFNg: 3.0

(53) Cc1cccc(NCc2c(C#N)c3ccccc3n2C)c1
  Tgondii IFNg: 229.7

(54) CC(C)c1cc(N2Cc3cnn(CCO)c3C2)nc(C(F)(F)F)n1
  Tgondii IFNg: -29.1

More structures.
item	canonical_smiles	Tgondii IFNg
61	CO[C@@H]1CN(C)C(=O)c2cc(NC(=O)C3CCOCC3)ccc2OC[C@@H](C)NC[C@@H]1C	-6.2
62	COCc1ncc(CN2CCN(c3nccc4ccccc34)CC2)cn1	5.4
63	O=C(O)C1CC(=O)N(Cc2nccn2Cc2ccccc2)C1 (stereo not drawn)	5.7
64	CN(Cc1noc(C2CCC2)n1)C(=O)COc1cccnc1	5.0
65	Cc1nc(CN(C)Cc2ccccc2-c2ccccc2)no1	5.8
66	CCc1nnc(CNC(=O)c2cccc(CC3CCNCC3)c2)s1	-2.0
67	Cc1ccc(-c2csc3nnc(C(F)(F)F)n23)cc1	-44.2
68	CCCN(CCC)S(=O)(=O)c1ccc(NC(=O)C2CC(=O)N(C(C)(C)C)C2)cc1 (stereo not drawn)	21.5
69	Cc1ccccc1-c1ccc([C@H]2[C@H](CO)N3C(=O)CN(C(=O)c4ccncc4)C[C@@H]23)cc1	-43.6
70	COCC1CN(C(=O)c2ccncc2)Cc2nccn2C1 (stereo not drawn)	-13.9

item	canonical_smiles	Tgondii IFNg
71	O=C(NC1CC(=O)N(CCc2ccccc2)C1)c1ccccc1-n1cncn1 (stereo not drawn)	38.4
72	O=C1CCc2cc(S(=O)(=O)NCC(c3ccccc3)c3c[nH]c4ccccc34)ccc2N1 (stereo not drawn)	35.1
73	CN(C)C(=O)[C@]12CCO[C@@H]1CCN(c1ncc(F)cn1)C2	-21.6
74	Cc1cccc(Nc2nc(C(=O)Nc3ccc(C)cc3Cl)nc3ccccc23)c1	-36.5
75	O=C(NC1CCN(Cc2ccccc2)CC1)c1ccc(-n2cccn2)cc1	4.2
76	CCN(CC)CC1CN(Cc2cnn(C)c2)Cc2nccn2C1 (stereo not drawn)	6.4
77	CC1CCCCN1C(=O)c1ccnn1-c1ccc2ccc(-c3ccccc3)cn12 (stereo not drawn)	-85.5*
78	CCOC(=O)C(=O)Nc1ccc(Oc2ccccc2)cc1	6.1
79	Cc1cc(C)c2c(c1)CC(C)(C)c1[nH]c(-c3ccc(Cl)cc3Cl)nc1-2	-71.2*
80	CCCCC(=O)N1CCC(C(=O)NCCc2csc(-c3ccccc3)n2)CC1	20.9

item	canonical_smiles	Tgondii IFNg
81	COCC1CN(CCc2ccccc2)CCN(C(=O)c2ccc(NC(C)=O)cc2)C1 (stereo not drawn)	-1.8
82	COC1CC2(CCN(CC(=O)O)CC2)c2ccc(C)cc21 (stereo not drawn)	-8.9
83	COCC(=O)N1[C@H](CO)[C@H](c2ccccc2C2=CCCC2)[C@@H]1C#N	-33.3
84	CC(=O)N1[C@@H](CO)[C@@H](c2ccc(C3=CCCC3)cc2)C12CN(C(=O)NC(C)C)C2	-28.2
85	Cc1noc(C)c1NC(=O)N(C)C[C@@H]1Oc2cc(C#CCN(C)C)ccc2S(=O)(=O)N([C@H](C)CO)C[C@H]1C	75.7
86	Cc1cnc(N2CCCn3cnc(CNS(C)(=O)=O)c3C2)nc1	-0.6
87	Cc1ccc(-c2ccc([C@@H]3[C@H](CO)N4C(=O)CN(C(=O)NC(C)C)C[C@@H]34)cc2)cc1	-40.9
88	CCc1ccc(NC(=O)C(=O)NCCc2sc(-c3cccc(F)c3)nc2C)cc1	-13.6
89	Cc1oc(-c2ccccc2Cl)nc1Cn1cnc2onc(-c3ccc(Cl)cc3)c2c1=O	-24.2
90	c1ccc(CN2CCO[C@H]3[C@H]2CC[C@H]3OCCCn2cccn2)cc1	-18.7

item	canonical_smiles	Tgondii IFNg
91	Cc1ccc2nc(Cc3ccc(NC(=O)c4cnc5c(C)cccn5c4=O)cc3)[nH]c2c1	-29.1
92	CC(C)NC(=O)N1CCN(S(=O)(=O)C2CC2)CC2(CC(=O)N(C)C2)C1 (stereo not drawn)	0.1
93	Cn1nc2c(c1C(=O)N1CCc3sccc3C1c1cccs1)CCCC2 (stereo not drawn)	16.8
94	CCOC(=O)C(C)NC(=O)c1nc(-c2ccc(C)cc2)n2c1CCCCC2 (stereo not drawn)	-105.9*
95	CCCS(=O)(=O)N1CCC2(CC1)Nc1ccc(C)c(C)c1-n1cccc12	17.5
96	CC(C)Cn1nc(C(=O)O)c2c1CCN(C(=O)C(C)N1CCN(C)CC1)C2 (stereo not drawn)	-0.3
97	COc1cc(CO)c(-c2c[nH][nH]c2=O)cc1OC	-13.9
98	COc1ccc(CNC(=O)Cn2ncc3c(N4CCCCC4)ncnc32)cc1OC	170.1
99	COC(=O)C[C@@H]1CC[C@H]2[C@H](COc3ccc(NS(=O)(=O)c4ccc(C)cc4)cc3C(=O)N2C)O1	7.3
100	Cc1ccc2c(c1C)-n1cccc1C1(CCN(C(=O)CC3CCCCC3)CC1)N2	27.4

item	canonical_smiles	Tgondii IFNg
101	CN1C(=O)CCc2cc(NC(=O)c3cccn3C)ccc21	181.9
102	COc1cc(C(=O)Nc2ccc(N(C)C)cc2)c([N+](=O)[O-])cc1OC	125.9
103	COc1ccc(CN2CCN(C(=O)c3ncc[nH]3)CC2=O)cc1	5.4
104	CCCNC(=O)N[C@H]1C=C[C@@H](CC(=O)N2CCN(C)CC2)O[C@H]1CO	19.5
105	O=C(c1cn2c(n1)CCCC2)N1CCC(Cc2ccccc2)CC1	?
106	CCC1=N[C@@]2(CC[C@@H]3CN(c4ncc(F)cn4)C[C@H]32)C(=O)N1CCOC	3.2
107	COC(=O)c1c(NCCc2cccs2)c2ccc(F)cc2[nH]c1=O	-36.2
108	COC(=O)C1=C(C)NC(C)=C(C(=O)O[C@H]2CCN(Cc3ccccc3)C2)[C@H]1c1cccc([N+](=O)[O-])c1	-2.1
109	Cc1nonc1CN(C)Cc1cccc(-c2ccc(F)cc2)c1	-31.3
110	CC(=O)N1CCc2c([nH]c3ccccc23)C12C(=O)N(C)c1ccc(Br)cc12 (stereo not drawn)	i

item	canonical_smiles	Tgondii IFNg
111	O=C(C1CCOCC1)N1CCn2c(Cn3cccn3)cnc2C1	-13.5
112	O=C(NCc1ccc2c(c1)OCO2)c1ccco1	1.1
113	CCOc1ccc(Cc2c(O)nc[nH]c2=O)cc1	24.1
114	CCOc1ccc(-c2nc(CN3CCN(C(=O)Nc4ccccc4C(=O)OC)CC3)c(C)o2)cc1	-39.7
115	O=C(CN1CCN(c2ncccn2)CC1)Nc1cnc2n1CCCC2	-6.0
116	COc1ccc(-c2nc(C)c(CCNS(=O)(=O)c3ccc4c(c3)OCCO4)s2)cc1	i
117	O=C1CCC/C(=N/Nc2ccccc2)C1	62.7
118	O=C(c1n[nH]c2c1CCC2)N1C[C@@H]2[C@@H]3CC[C@@H](C3)[C@@H]2C1	-28.2
119	CCS(=O)(=O)Nc1ccc2c(c1)C(=O)N(C)[C@@H]1CC[C@@H](CC(=O)N[C@@H]3CCN(Cc4ccccc4)C3)O[C@@H]1CO2	9.8
120	O=C1CCC2(CCN(Cc3cccs3)CC2)N1Cc1ccccc1	0.2
121	O=C(O)c1ccccc1C1CCN(Cc2ccccc2-n2cccn2)C1 (stereo not drawn)	-0.9
122	c1csc(CN2Cc3ccnn3CC(COCC3CC3)C2)c1 (stereo not drawn)	-6.6
123	CC(C)C(NC(=O)CN1C[C@@H](C)O[C@@H](C)C1)c1nccn1C (stereo partly drawn)	-5.6

An excerpt. The share of hits here may be higher or lower than overall.
